VDR inh = vitamin D3 receptor (human) inhibition. P11473. VDR-SRC2-3 peptide fluorescence polarization, 2 h. Potency, µM, without a hit: max response, negative = inhibition, actives largely listed as inhibitors. hit rate 0.93% among 400,000; active = well fitted inhibition curve with a large enough effect; inconclusive = small, poorly fitted or top-dose-only effect, or another doubt; inactive = no such curve, though single readings can be large or run the other way; also: series mostly up to about 120 µM
Target sequence (P11473 whole entry, looked up): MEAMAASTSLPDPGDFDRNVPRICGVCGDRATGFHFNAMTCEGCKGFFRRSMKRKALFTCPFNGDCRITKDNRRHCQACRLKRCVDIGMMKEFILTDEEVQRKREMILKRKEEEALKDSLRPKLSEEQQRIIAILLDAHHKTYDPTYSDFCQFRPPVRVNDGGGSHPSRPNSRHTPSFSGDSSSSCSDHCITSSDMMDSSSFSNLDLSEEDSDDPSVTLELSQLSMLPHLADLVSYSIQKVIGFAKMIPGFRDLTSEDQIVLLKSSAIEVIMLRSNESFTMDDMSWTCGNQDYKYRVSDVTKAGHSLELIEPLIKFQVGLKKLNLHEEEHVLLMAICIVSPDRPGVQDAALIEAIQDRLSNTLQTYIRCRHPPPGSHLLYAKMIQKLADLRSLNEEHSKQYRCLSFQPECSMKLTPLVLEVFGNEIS
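Inhibition of the VDR/SRC2-3 peptide interaction is quantified by fluorescence polarization. Compounds (23 nl, pintool) incubate with the reagents for 2 hours at ambient room temperature.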
Numbers without * were called inactive; u = inconclusive. % is scaled to controls: 0 for no effect and ±100 for the full control effect; potency is read from the fitted curve at half-maximal effect. Not all compounds are listed; count on the stated rates, not on these rows.

SMILES,VDR inh
CCOC(=O)C1=C(C)Nc2ccccc2N=C1NC(=O)c1oc2ccccc2c1COC,u
CC(C)OCCCN1C(=O)c2ccccc2C1C(=O)NC1CCCCC1 (stereo not drawn),19%
COc1cc2cc(CNc3ccc(C)cc3)c(=O)n(CC(=O)Nc3ccc(C(C)C)cc3)c2cc1OC,-6%
COc1ccc(NC(=O)C(C)SCc2ccccc2)cc1 (stereo not drawn),-1%
CCOC(=O)c1c(-c2ccsc2)csc1N,-29%
COC(=O)c1ccc(-n2nnnc2SC)cc1,-18%
Cc1cc(OCC(=O)N(C)C2CCCCC2)cc(C)c1Cl,-12%
CNC(=S)NNC(=O)c1cccn(Cc2cccc(C(F)(F)F)c2)c1=O,-6%
Cn1c(CN2CCCC2)nc2cc(NC(=O)COc3ccc(Cl)cc3)ccc21,15%
CCN1C(=O)C(=O)N(CC(=O)Nc2ccccc2Oc2ccccc2)C1=O,-2%

New compounds follow
SMILES,VDR inh
CC(C(=O)NCCS(=O)(=O)c1ccc(Cl)cc1)S(=O)(=O)c1ccccc1 (stereo not drawn),-9%
COc1ccc2c(COC(=O)CNC(=O)C34CC5CC(CC(C5)C3)C4)cc(=O)oc2c1,-6%
CN(C(=O)c1ccc2c(=O)n3c(nc2c1)CCCCC3)c1ccccc1,5%
COc1ccc(CNC(=O)CN(C(=O)c2snc(C(N)=O)c2N)c2ccc(OC)c(OC)c2)cc1,1%
Cc1cc(OCC(=O)NCc2nc(-c3ccccc3)no2)c(C)cc1Br,-11%
COc1cc(/C=N/n2c(COc3ccccc3)n[nH]c2=S)cc(OC)c1OC(C)=O,-28%
CCc1nc2ccccc2c(C(=O)OCC(=O)N(CC(C)C)c2c(N)n(Cc3ccccc3)c(=O)[nH]c2=O)c1C,-20%
CC[C@H](C)[C@H](NC(N)=O)C(=O)Nc1ccccc1F,-1%
CC(C)C[C@H]1CNC(=S)N1CC1CCN(CCCC2CCCCC2)CC1,-3%
CC(=O)NCC(=O)N(c1ccccc1)C1(C(=O)NC2CCCCC2)CCCCC1,10%

Later entries.
SMILES,VDR inh
Cc1cccc(NC(=S)NCc2ccncc2)c1C,11%
O=C1c2ccccc2NC(c2ccccc2Br)N1CCCN1CCOCC1 (stereo not drawn),10%
CC1C(=O)c2ccccc2CC1C(=O)O (stereo not drawn),-1%
COc1ccccc1CNc1nc(-c2ccco2)nn1C(=O)c1ccccc1[N+](=O)[O-],12%
COc1ccccc1Nc1nc(N2CCCC2)nc(N2CCOCC2)n1,-12%
Cc1ccc(S(=O)(=O)N2CCN(C(=O)C(C)Cn3cncn3)CC2)cc1 (stereo not drawn),-14%
COc1ccc2c(CNCc3cccs3)c(C(=O)O)n(Cc3ccc(F)cc3Cl)c2c1,-3%
CC(C)(C)C(=O)Nc1ccc(N2CCN(S(C)(=O)=O)CC2)cc1,16%
O=C(Cn1c(-c2ccc(Cl)cc2)noc1=O)N1CCN(c2ccccc2F)CC1,-2%
COC(=O)CSc1nc(C(C)C)nc2ccccc12,-5%

Following part
SMILES,VDR inh
COc1cc(/C=N/OCC(=O)Nc2cc(C)on2)ccc1OCc1ccccc1,-20%
Cc1ccccc1C(=O)Nc1ccc2nc(Nc3cccc(C(F)(F)F)c3)cc(C)c2c1,6%
CCC(C)(C)NC(=O)C(c1cccn1C)N(C(=O)Cn1nnc2ccccc21)c1ccc(F)cc1 (stereo not drawn),-2%
CN(C)Cc1ccccc1-c1cc(N(C)C)ncn1,-4%
O=C(O)CCCC(=O)NCCCCc1ccccc1,-13%
O=C(Nc1ccc2c(c1)OCCO2)c1cnc2ccccn2c1=O,5%
CCN(CC)S(=O)(=O)c1cccc(-n2c(O)c(C=Nc3ccccc3C(=O)O)c3ccccc3c2=O)c1,-13%
O=C(O)CC1(CC(=O)Nc2cccc(C(=O)O)c2)CCCC1,-4%
CCCn1c(=O)c2c(C(F)(F)F)cc(-c3ccco3)nc2n(CCC)c1=O,-11%
Cc1ccc(S(=O)(=O)N2CCCC2CNC(=O)C(=O)NC2CCCC2)cc1 (stereo not drawn),-7%

Some of the entries so far, with the structure last.
VDR inh	mol
-20%	COc1cc(/C=N/OCC(=O)Nc2cc(C)on2)ccc1OCc1ccccc1
6%	Cc1ccccc1C(=O)Nc1ccc2nc(Nc3cccc(C(F)(F)F)c3)cc(C)c2c1
-2%	CCC(C)(C)NC(=O)C(c1cccn1C)N(C(=O)Cn1nnc2ccccc21)c1ccc(F)cc1 (stereo not drawn)
-4%	CN(C)Cc1ccccc1-c1cc(N(C)C)ncn1
-13%	O=C(O)CCCC(=O)NCCCCc1ccccc1

Later entries
SMILES,VDR inh
COC(=O)CCSc1nccn1Cc1ccccc1,3%
COc1ccc(-c2noc(-c3ccccc3Cl)n2)cc1OC,-16%
N#CCc1c(C#N)c(N)nc(N2CCCC2)c1C#N,-4%
COC(=O)c1ccc(NC(=O)c2ccc(NC(=O)C3CCCO3)cc2)cc1 (stereo not drawn),-8%
Cc1ccc(Cn2cccc(NC(=O)CCC3CCCC3)c2=O)cc1,2%
O=C(OCc1cncs1)c1ccccc1Cl,0%
CC(Oc1ccccc1Cl)C(=O)N(Cc1cccs1)C1CCS(=O)(=O)C1 (stereo not drawn),-5%
CC(C(=O)OCC(=O)c1ccc(F)cc1)N1C(=O)C2C3C=CC(C3)C2C1=O (stereo not drawn),-9%
Cc1sc(NC(=O)COc2ccccc2)c(C#N)c1C,50µM*
COc1ccc(-c2cc(NCc3ccc(C)cc3)n3cnnc3n2)cc1,9%

(list continues)
SMILES,VDR inh
CC(=O)Nc1ccc(C(=O)Nc2nc(-c3cc(C)n(Cc4ccccc4)c3C)cs2)cc1,-3%
COc1cccc(Cn2nnc3c(=O)[nH]c(C4CCCN(C(=O)c5ccccc5Cl)C4)nc32)c1 (stereo not drawn),-5%
COc1ccc(C(=O)COC(=O)COc2cccc3c2OC(C)(C)C3)c(OC)c1,15%
O=C(CCNC(=O)c1ccccc1Cl)Nc1cccc(S(=O)(=O)N2CCOCC2)c1,-4%
O=C1CC(c2ccccc2)n2nc(NS(=O)(=O)c3ccccc3)nc2N1 (stereo not drawn),-16%
COCCn1c(N)c(Sc2ccccc2)c(=O)[nH]c1=O,-15%
Cc1sc(N)c(C#N)c1C,-21%
O=C(NCC1CCCO1)C1CCCN1C(=O)Nc1ccc(Cl)cc1 (stereo not drawn),-26%
CCCn1ccc2c(OCC(=O)NCc3ccc(C)cc3)cccc2c1=O,2%
CCCN(C(=O)COC(=O)c1cc(CC)c(C)s1)c1c(N)n(Cc2ccccc2)c(=O)[nH]c1=O,-14%

Looked up one by one from the entries so far:
SMILES,VDR inh
O=C1CC(c2ccccc2)n2nc(NS(=O)(=O)c3ccccc3)nc2N1 (stereo not drawn),-16%
COc1ccc(C(=O)COC(=O)COc2cccc3c2OC(C)(C)C3)c(OC)c1,15%
COc1cccc(Cn2nnc3c(=O)[nH]c(C4CCCN(C(=O)c5ccccc5Cl)C4)nc32)c1 (stereo not drawn),-5%
COCCn1c(N)c(Sc2ccccc2)c(=O)[nH]c1=O,-15%
CC(=O)Nc1ccc(C(=O)Nc2nc(-c3cc(C)n(Cc4ccccc4)c3C)cs2)cc1,-3%

Later entries
SMILES,VDR inh
CC(=O)c1cccc(NC(=O)c2ccc(NS(C)(=O)=O)cc2)c1,4%
CC([NH2+][O-])C(C)(C)NO (stereo not drawn),7%
COc1ccc(NC(=O)CSc2nc3c(c(=O)[nH]2)CCC3)cc1OC,9%
CC1(c2cccc3ccccc23)OC(=O)c2ccccc21 (stereo not drawn),-9%
COc1ccc(-c2nc(CN3CCN(C(=O)c4ccco4)CC3)c(C)o2)cc1OC,-13%
COC(=O)CCC(=O)Nc1ccc(C)cc1OC(=O)CCC(=O)OC,4%
O=C(COC(=O)c1cnc(Cl)c(Cl)c1)NCc1ccco1,2%
CCCCc1cn([C@@H](CCCCNC(=O)OC(C)(C)C)C(=O)N2CCN(C(=O)OC(C)(C)C)CC2)nn1,14%
COc1ccc(NC(=O)CSc2nnc(-c3ccccn3)n2N)cc1,-15%
CCOc1cc(-c2cc(-c3ccccc3)nc(N)c2C#N)ccc1O,6%

Continued:
SMILES,VDR inh
CC(=O)Nc1ccc(N2C(=O)CC(Sc3nc4ccccc4s3)C2=O)cc1 (stereo not drawn),13%
O=C1NCCOC(=O)[C@@H](Cc2ccc(F)cc2)CC/C=C/C[C@H]1CC(=O)N(CCO)Cc1ccccc1,-12%
COc1ccc(-n2cc(CNCc3cnc4ccccn34)c(-c3cccc(F)c3)n2)cc1,7%
Cc1ccc(NC(=O)/C(=C\c2cccnc2)NC(=O)c2ccco2)cc1,2%
CCOC(=O)c1cn(Cc2ccc(Br)cc2)nn1,-24%
COc1ccc(NC(=O)CN(C)C(=O)c2ccc(NC3CC3)c([N+](=O)[O-])c2)cc1,23%
Cc1cc(C)n2nc(SCc3nnc(SCc4ccccc4C)s3)nc2n1,-14%
COc1ccc(COC(=O)C2=C(C)NC(=O)NC2c2ccccc2)cc1 (stereo not drawn),3%
Clc1ccc(CSc2ncn(-c3ccccc3)n2)cc1,-2%
CC(C)=CCC/C(C)=C/CNC(=O)C[C@H]1C[C@H](C(=O)N2CCOCC2)[C@@]2(C)c3[nH]c4cc(-c5ccco5)ccc4c3CCN2C1=O,-3%

Further records.
SMILES,VDR inh
N#CC1(NC(=O)COC(=O)CCCN=C2NS(=O)(=O)c3ccccc32)CCCCC1,25%
O=C(c1cccc(O)c1)N1CCN(C(=O)C2CC2)CC1,-9%
CCc1ccc(-c2nc(CN3CCCC(C(=O)NCCc4ccc(OC)c(OC)c4)C3)c(C)o2)cc1 (stereo not drawn),-3%
CN(C)c1ccc(C(=O)n2nnc3ccccc32)cc1,1%
CCC(C)(C(=O)NC1CCCC1)N(C)C(=O)Cc1c[nH]c2ccccc12 (stereo not drawn),-2%
COC(=O)CCCCC1SCC(NC(=O)OC)C1NC(=O)OC (stereo not drawn),0%
COc1ccccc1CNC(=O)C1CCN(S(C)(=O)=O)CC1,-19%
NC(N)=NNC(=O)c1ccccc1Cl,-16%
O=C(c1cc2ccccc2o1)N(Cc1ccco1)Cc1cccs1,-14%
O=C(NCc1ccncc1)NC1CCCCC1,16%

Next section:
SMILES,VDR inh
CCCCNC(=O)c1nn(C)c2c1CSc1ccccc1-2,4%
COc1ccc(S(=O)(=O)N2CCN(c3ccc(Cl)c(Cl)c3)CC2)c2ccccc12,7%
O=C1C2C3C=CC(C2C(=O)N1CCO)C1C(=O)N(CCO)C(=O)C31 (stereo not drawn),-6%
COc1ccc(OC)c(C(=O)COC(=O)c2cccnc2SC)c1,15%
NS(=O)(=O)c1ccc(NC(=S)NCc2cccs2)cc1,-5%
Cc1cccc(NC(=O)C2CCCN(C(=O)Nc3ccccc3)C2)c1C (stereo not drawn),2%
COc1cccc(C(=O)N(Cc2ccco2)Cc2cc3cccc(C)c3[nH]c2=O)c1,-8%
CCOc1ccc(OCC)c(NC(=O)CCc2nc3cccnc3n2-c2ccccc2)c1,-10%
COc1ccc(C(=O)Nc2nonc2-c2ccc(OC)c(OC)c2)cc1Cl,7%
Cn1c(CNC(=O)c2ccccc2F)nnc1SCC(=O)Nc1nncs1,-9%

(continued)
SMILES,VDR inh
CN(C)c1nc(OCC(=O)NC(C)(C)C)nc(N(C)C)n1,-8%
Cc1cc(C)nc(Sc2nc(C)nc3c2oc2ccccc23)n1,-8%
O=C(CSc1nnnn1-c1ccc(F)cc1)NCc1cccs1,-11%
CCOC(=O)c1cc(S(=O)(=O)N2CCN(c3cc(Cl)ccc3C)CC2)[nH]n1,1%
COc1ccc(COC(=O)C2=C(C)NC(=O)NC2c2ccc(OC)c(OC)c2)cc1 (stereo not drawn),-10%
Cc1ccc(C)c(N2C(=O)C3C4C=CC(CC4)C3C2=O)c1 (stereo not drawn),14%
Cc1ccc2oc(=O)n(CC(=O)OCCC(C)C)c2c1,4%
CCCCNC(=O)C1c2cc(OC)c(OC)cc2C(=O)N(C)C1c1ccc(OC)cc1 (stereo not drawn),-10%
CC(NC(=O)C1CCCN(C(=O)N(C)C)C1)c1ccccc1 (stereo not drawn),-5%
O=C(COc1ccc2ccccc2c1Br)NCc1ccccn1,-4%

Further structures.
SMILES,VDR inh
O=C(Cn1cc(/C=N/NC(=O)c2ccccc2Br)c2ccccc21)Nc1ccc(F)cc1,-2%
COc1ccc(C2c3c(n(C)c4ccccc34)C(=O)N2CC(=O)Nc2c(C)cc(C)cc2C)cc1 (stereo not drawn),-2%
CCOc1ccc(NC(=O)CNc2ccc(C)cc2Cl)cc1,3%
Cc1csc(NC(=O)c2cccc([N+](=O)[O-])c2C(=O)O)n1,3%
O=C(N/N=C1\NC(=O)C(CO)(CO)S1)c1ccccc1,-11%
C(=N\n1c2ccccc2c2ccccc21)/c1ccccc1,-8%
Oc1ccc(-c2cn3c(n2)SCC3)cc1O,-14%
Cc1ccc2nc(-c3cccc(-c4cccc(Cl)c4)c3)c(NCc3ccccc3)n2c1,-3%
CC(C)CNc1nc2c(c(=O)n(C)c(=O)n2C)n1Cc1cccc(Br)c1,-3%
C/C(Cl)=C\Cn1c(NCCCn2ccnc2)nc2c1c(=O)n(C)c(=O)n2C,18%

(listing goes on)
SMILES,VDR inh
COc1ccc(-c2cc(C(=O)NCc3cccs3)no2)cc1,7%
Brc1ccccc1-n1ncc2c1ncn1nc(Cc3ccccc3)nc21,11%
Cc1c(C(=O)N2CCCCC2)c(S(=O)(=O)Nc2cccc(Br)c2)c(C)n1C,15%
CCOc1ccc(C=O)cc1CN1CCCCC1,-1%
O=c1c(Br)c(N2CCOCC2)cnn1-c1ccccc1,-9%
CN(CC(=O)NCCc1ccccc1)S(=O)(=O)c1cccs1,4%
